High-throughput results: PubChem, National Center for Advancing Translational Sciences (NCATS)
Cruzain inh noDet = blocks cruzain activity in detergent-free assay. purified cruzain, Z-FR-AMC fluorescence, no detergent. Potency, µM, for inactives: max response, negative = inhibition, hits mostly inhibitors. actives 2.3% (n = 200,000);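 further: plate controls were enzyme without inhibitor for no effect and buffer without enzyme for full effect; nearly all actives have a fitted effect of over 40% in size; top concentration of the series not given in the record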
Target sequence (P25779 123-467 limits assumed): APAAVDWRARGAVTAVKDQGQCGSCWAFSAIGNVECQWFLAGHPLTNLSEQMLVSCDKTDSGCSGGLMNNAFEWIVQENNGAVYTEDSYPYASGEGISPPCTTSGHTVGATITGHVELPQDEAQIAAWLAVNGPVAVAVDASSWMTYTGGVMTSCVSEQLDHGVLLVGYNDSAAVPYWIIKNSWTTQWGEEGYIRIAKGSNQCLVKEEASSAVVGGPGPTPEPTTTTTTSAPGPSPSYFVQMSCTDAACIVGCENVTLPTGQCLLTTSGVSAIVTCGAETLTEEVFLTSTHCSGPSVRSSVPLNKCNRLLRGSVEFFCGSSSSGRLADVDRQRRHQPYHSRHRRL
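Purified cruzain at 1.5 nM, pre-incubated 15 min with compound at room temperature in 100 mM sodium acetate pH 5.5, 5 mM DTT, 0.00005% Triton X-100. Reaction started with 2 uM Z-FR-AMC; AMC fluorescence increase over 60 s gives rate.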
SARS PLP yeast = inhibitors of SARS-CoV papain-like protease in yeast. AID 485353. actives 0.19% (n = 330,000). Potency, µM (top dose mostly 32.9 µM), for the others: at the top dose activity, positive = growth rescue. S. cerevisiae expressing SARS-CoV PLpro, growth rescue; control for the full effect not named in the record; active means well fitted rising curve with a large enough effect; inconclusive means small, poorly fitted or top-dose-only effect; inactive means no such curve, though single readings can be large or run the other way; further: 0% is about no effect; nearly all actives have a fitted effect of over 55% in size; growth read by luminescence after 48 h
NS1 function inh = inhibitors of influenza NS1 protein function. S. cerevisiae slowed by influenza A NS1, growth recovery by OD600. Potency, µM (titrated, usually from 46.1 µM), for inactives: at the top dose activity, positive = more growth. actives 0.4% (n = 270,000); active means well fitted rising curve with a large enough effect; inconclusive means small, poorly fitted or top-dose-only effect; inactive means no such curve, though single readings can be large or run the other way; further: nearly all actives have a fitted effect of over 50% in size
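Recovery from NS1-induced slow growth read by OD600 in budding yeast switched to galactose assay medium (pH 6.0, -URA) at 1:100 dilution. Compound 23 nl per well; the matching strain lacking NS1 serves as control.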
RE007 growth inh = less growth of the S. pombe RE007 Vpr strain | S. pombe RE007 Vpr strain, BacTiter-Glo ATP luminescence, 24 h; control for the full effect not named in the record | Potency, µM (highest dose often 92.2 µM), for inactives: at the highest dose activity change, negative = less growth | actives 0.21% (n = 360,000) | AID 651644; active = well fitted falling curve with a large enough effect; inconclusive = small, poorly fitted or top-dose-only effect; inactive = no such curve, though single readings can be large or run the other way;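 further: on the % scale 0 is the no-effect control and ±100 the full control effect; nearly all actives have a fitted effect of over 50% in size; the assay follows cell death caused by Vpr and the record does not say whether a fall means rescue or toxicity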
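Fission yeast strain RE007, carrying one chromosomally integrated HIV-1 vpr copy, was seeded at OD 0.01 in PMG+AL medium with 23 nL pinned compound. After 24 h at 30 °C and 99% humidity, viability was read by BacTiter-Glo luminescence.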
LASV entry inh = blocks Lassa virus binding to or entry into cells | AID 540256 | Potency, µM (titrated, usually from 37.9 µM), inactives show at the highest dose activity change, negative = inhibition, most hits filed as inhibitors | actives 1.2% (n = 300,000) | Lassa virus pseudotype entry inhibition, cell reporter; control for the full effect not named in the record; active means well fitted inhibition curve with a large enough effect; inconclusive means small, poorly fitted or top-dose-only effect, or effect the other way; inactive means flat fitted curve, though single readings scatter; tested in HEK293 cells; further: on the % scale 0 is the no-effect control and ±100 the full control effect; nearly all actives have a fitted effect of over 50% in size; luciferase read-out
MARV entry inh = inhibitors of Marburg virus binding or cell entry | actives 1.8% (n = 300,000) | Potency, µM (top dose mostly 37.8 µM), for inactives: at the highest dose activity change, negative = inhibition, usual class: inhibitors | Marburg virus pseudotyped entry inhibition, cell reporter; control for the full effect not named in the record; about a third of the inactives were read at about 46 µM | AID 540276; active = well fitted inhibition curve with a large enough effect; inconclusive = small, poorly fitted or top-dose-only effect, or effect the other way; inactive = flat fitted curve, though single readings scatter; tested in HEK293 cells; about a fifth of its hits are not listed in these tables; further: on the % scale 0 is the no-effect control and ±100 the full control effect; luciferase read-out
2A StopGo = lowers the luciferase signal of an FMDV 2A StopGo reporter; human cells with a luciferase reporter of 2A StopGo recoding; control for the full effect not named in the record; Potency, µM (top dose mostly 57.9 µM), without a hit: top-dose signal change, negative = less light; actives 1.2% (n = 410,000); active = well fitted falling curve with a large enough effect; inconclusive = small, poorly fitted or top-dose-only effect; inactive = no such curve, though single readings can be large or run the other way; tested in HEK293T cells; further: on the % scale 0 is the no-effect control and ±100 the full control effect; nearly all actives have a fitted effect of over 45% in size; luciferase light after 4 h
Cruzain inh Det = inhibitors of Trypanosoma cruzi cruzain with detergent; P25779; purified cruzain, Z-FR-AMC fluorescence, 0.01% Triton; Potency, µM, without a hit: max response, negative = inhibition, actives largely listed as inhibitors; actives 0.43% (n = 200,000);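 further: plate controls were neutral wells for no effect and buffer without enzyme for full effect; nearly all actives have a fitted effect of over 40% in size; top concentration of the series not given in the record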
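Detergent-containing run (0.01% Triton X-100) in acetate buffer pH 5.5 with 5 mM DTT: enzyme at 1.5 nM final, 15 min compound preincubation at room temperature, then 2 uM Z-FR-AMC substrate. Activity taken as 60 s fluorescence increase at 360/450 nm.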
* hit, by the source's call; ? = inconclusive; / = not tested or not shown; & = joins results of further samples; [ ] = dose if it differs, or a comment. Unless noted, the call rests on the fitted dose curve; in most records, active means well fitted curve in the direction sought with a large enough effect; inconclusive means small, poorly fitted or top-dose-only effect, or another doubt; inactive means no such curve, though single readings can be large; an effect the other way counts as inactive or inconclusive. Potency means the concentration at half of the fitted maximal effect.

SMILES	Cruzain inh noDet	SARS PLP yeast	NS1 function inh	RE007 growth inh	LASV entry inh	MARV entry inh	2A StopGo	Cruzain inh Det
COc1ccc(NC(C)=O)cc1NC(=O)c1cccn(Cc2ccccc2)c1=O	18%	/	/	/	12%[46.1 µM]	/	-16%	-4.1%
CCCCNCc1cc(Br)c(OCC(=O)N2CCOCC2)c(OC)c1	6%	3%	0%	4%	19%	-17%	20%	5.7%
CCN1CCN(Cc2c(O)ccc3c(C)cc(=O)oc23)CC1	/	0%	2%	-6%	/	1%	-4%	/
N=c1n(CCO)c2ccccc2n1Cc1ccc(Cl)cc1	-2%	3%	-12%	-8%	1%	?	-22%	0.2%
CC(OC(=O)CN1C(=O)c2ccccc2C1=O)C(=O)NC1CCCCC1C (stereo not given)	/	1%	/	-1%	31%	5%	-10%	/
CC1CCCN(S(=O)(=O)c2cc3c4c(c2)CCN4C(=O)CC3)C1 (stereo not given)	/	-1%	/	15%	?	-2%[46.1 µM]	-13%	/
CCc1ccc(S(=O)(=O)NC2CC(C)(C)NC(C)(C)C2)cc1	/	5%	-1%	1%	-20%[46.1 µM]	-7%[46.1 µM]	41%[activator]	/
CCNc1nc(NCC)nc(N/N=C/c2ccccc2)n1	/	-1%	0%	8%	/	/	17%	/
Cc1cc(Oc2nc3c(C)cccn3c(=O)c2/C=C(\C#N)S(=O)(=O)c2ccccc2)ccc1Cl	?	9%	-3%	4%	8%	?	?	1.0%
Cc1c(-n2c(SCC(=O)N(C)C3CCS(=O)(=O)C3)nc3ccccc3c2=O)c(=O)n(-c2ccccc2)n1C (stereo not given)	/	2%	/	-5%	-2%	1%[46.1 µM]	2%	/
CC(=O)c1ccc(OCC(O)CN2CC(C)OC(C)C2)cc1 (stereo not given)	-1%	0%	6%	-6%	0%	-5%	0%	-3.1%
CCCCCCCC(=O)N/N=C/c1ccc([N+](=O)[O-])o1	0%	-48%	-30%	-9%	/	/	-15%	-2.8%

Reprinted at random: 3 records from the list
SMILES	Cruzain inh noDet	SARS PLP yeast	NS1 function inh	RE007 growth inh	LASV entry inh	MARV entry inh	2A StopGo	Cruzain inh Det
CCCCNCc1cc(Br)c(OCC(=O)N2CCOCC2)c(OC)c1	6%	3%	0%	4%	19%	-17%	20%	5.7%
CCCCCCCC(=O)N/N=C/c1ccc([N+](=O)[O-])o1	0%	-48%	-30%	-9%	/	/	-15%	-2.8%
CC(=O)c1ccc(OCC(O)CN2CC(C)OC(C)C2)cc1 (stereo not given)	-1%	0%	6%	-6%	0%	-5%	0%	-3.1%

New compounds follow
SMILES	Cruzain inh noDet	SARS PLP yeast	NS1 function inh	RE007 growth inh	LASV entry inh	MARV entry inh	2A StopGo	Cruzain inh Det
O=C(O)/C=C\C(=O)Nc1ccccc1C(=O)NCc1ccccc1	0%	1%	4%	30%	0%	?	-3%	-3.1%
CCOC(=O)c1cc(OC(=O)c2ccccc2C)n(-c2ccccc2)n1	-4%	/	/	/	?	?	-11%	-4.7%
COC(=O)c1ccc(NC(=S)NCCCn2ccnc2)cc1	/	6%	6%	93%	2%[46.1 µM]	16%	18%	/
Cc1ccc(S(=O)(=O)NCC(=O)OC(C(=O)c2ccccc2)c2ccccc2)cc1 (stereo not given)	?	-4%	-49%	-4%	0%	?	-7%	?
COc1ccccc1NC(=O)C1=C(C)Nc2nc(SCc3ccccc3)nn2C1c1ccccn1 (stereo not given)	0%	/	/	/	13%[46.1 µM]	?	-9%	-0.1%
CC(=O)Nc1sc2c(c1CN1CCCC1)CCCC2	/	0%	-1%	10%	-16%	?	-18%	/
Cc1nnc(NCc2cccc(Cl)c2)c2ccccc12	/	-6%	-13%	-9%	3%	-9%[46.1 µM]	-6%	/
CC(=O)NCCC(=O)Nc1nc(C)c(Cc2ccc3c(c2)OCO3)s1	9%	8%	3%	8%	5%	-24%	16%	1.0%
O=c1n(Cc2cccc(C(F)(F)F)c2)c2ccccc2c2nc(-c3ccccc3)nn12	-11%	/	/	/	-17%[46.1 µM]	2%[46.1 µM]	-9%	-4.6%
CCc1nnc(NC(=O)C2CC(=O)N(Cc3ccco3)C2)s1 (stereo not given)	-3%	4%	1%	3%	0%	-19%	6%	-0.7%
COC(=O)Cn1c(=NC(=O)CCS(=O)(=O)c2ccccc2)sc2c(OC)ccc(OC)c21	/	?	16%	0%	/	/	-13%	/
O=C(CCNS(=O)(=O)c1ccccc1)NNC(=O)C1COc2ccccc2O1 (stereo not given)	/	-4%	/	23%	20%[46.1 µM]	-2%	-10%	/
CCSc1nc2ccccc2n1CCOc1ccccc1	15%	?	2%	-15%	-11%	6%[46.1 µM]	17%	-9.3%
O=C(CSc1nnc(-c2ccccc2F)n1CCc1ccccc1)Nc1ccc2[nH]c(=O)[nH]c2c1	-4%	4%	-12%	10%	-10%	?	-6%	-3.6%
Cc1ccoc1C(=O)NCCCNC(=O)c1occc1C	7%	3%	2%	1%	3%	6%[46.1 µM]	1%	2.6%
Nc1c(-c2ccccc2)c(CN2CCOCC2)nn1-c1cccc([N+](=O)[O-])c1	/	0%	/	2%	-1%[46.1 µM]	-13%[46.1 µM]	-11%	/
CCOc1ccc(S(=O)(=O)NCc2ccncc2)cc1NC(=O)c1ccccc1F	/	2%	1%	2%	-25%	?	32%[activator]	/
O=C(CCCSc1nc2sc3c(c2c(=O)[nH]1)CCC3)NCCCO	5%	-7%	-1%	-1%	0%	-10%	8%	-4.9%
COc1ccc(C(=O)Nc2ccc(S(=O)(=O)N3CCCC3)cc2)c(OC)c1	2%	-1%	9%	-6%	-1%	-17%	7%	-6.1%
CC1=NN2C(=N)/C(=C\c3ccc(SCc4ccccc4)o3)C(=O)N=C2S1	7.9µM*	12%	9%	-7%	2%	?	2%	-0.9%
OC[C@H]1O[C@@H](n2cnc3c(NC4CCCC4)ncnc32)[C@H](O)[C@H]1O	-1%	/	-12%	/	/	40%	/	-7.6%
O=C1CC(N2CCC(O)(c3ccc(Cl)cc3)CC2)C(=O)N1 (stereo not given)	-1%	0%	-8%	?	-2%	-1%	-11%	0.7%
CCN1C(=O)C2(c3ccccc31)c1c(oc3ccc(C)cc3c1=O)C(=O)N2CCCOC(C)C (stereo not given)	-6%	/	/	/	-6%[46.1 µM]	0%[46.1 µM]	17%	-1.8%
COc1ccc(OC)c(-c2cc(C3CCN(c4cc(Cl)nc(N)n4)CC3)[nH]n2)c1	7%	-11%	26%	22%	?	?	18µM*	-3.7%
NC(=O)c1ccsc1NC(=O)COC(=O)CCCOc1ccccc1	/	1%	/	4%	16%	?	?	/
COC(=O)c1ccc2c(=O)n(CC3CCCO3)c(SCC(=O)Nc3ccc(OC)cc3OC)nc2c1 (stereo not given)	/	0%	5%	0%	/	/	11%	/
CCOc1ccccc1C1C2C(=O)N(c3ccccc3)C(=O)C2ON1c1ccccc1 (stereo not given)	?	2%	-37%	3%	10%	5%	-13%	-1.6%
c1ccc(Cc2nnc3sc(-c4cccs4)nn23)cc1	?	-13%	-70%	-1%	-33%[14.3 µM]	-4%	45%[activator]	-4.7%
CCOC(=O)c1cn(CC(=O)Nc2cccc(Cl)c2C)nn1	2%&3%	-6%	5%	-10%	-13%[46.1 µM]	?	-6%&0%	-2.9%&5.4%
CC12CCCC(C(C#N)C(N)=O)(C1)NC(=O)C2C#N (stereo not given)	/	/	/	1%	15%	?	2%	/
Cc1noc(C)c1S(=O)(=O)N(CC(=O)NC(C)c1ccccc1)c1ccc(C(C)C)cc1 (stereo not given)	/	?	2%	1%	/	/	2%	/
COc1cccc(/C=N/n2cnc3cc(C)c(C)cc32)c1OC	/	1%	-30%	-15%	5%	19%[14.2 µM]	0%	/
O=C(C1=C[C@@H](c2ccc(C(F)(F)F)cc2)C[C@@H](OCc2ccc(CO)cc2)O1)N1CCOCC1	/	-1%	6%	11%	/	/	-8%	/
Cc1ccc(CNc2nc3ccc(Cl)cc3n3nnnc23)cc1	4%	/	/	/	7%[46.1 µM]	-8%[46.1 µM]	-13%	-0.5%
Cc1ccc(S(=O)(=O)N2CCN(C(=O)c3cc(S(=O)(=O)N(C)C)ccc3N3CCCC3)CC2)c(C)c1	/	5%	/	7%	-25%	?	29%	/
COc1ccc(CNC(=O)CN2CCN(S(=O)(=O)c3cc(Br)ccc3Br)CC2)cc1OC	/	-5%	/	-22%	0%	-3%	?	/
COc1ccc(OC)c2[nH]c(=O)c(CCNC(=O)c3ccc(Br)o3)cc12	3%	-9%	-21%	-3%	0%	-9%	/	-0.6%
O=C(c1ccc(SCc2ccco2)c([N+](=O)[O-])c1)N1CCOCC1	/	0%	5%	-20%	?	0%[46.1 µM]	12%	/
CCN(CC)C(=O)Cn1cc(C(=O)C(=O)NCc2ccco2)c2ccccc21	/	-1%	/	1%	10%	-13%[46.1 µM]	-3%	/
CCOC(=O)CNC(=O)CSc1nc2cccnc2n1C	5%	3%	10%	14%	16%	3%[46.1 µM]	4%	1.0%
Cc1cc(C)c(C)c(S(=O)(=O)N2CCN(C(=O)C3CSC4(C)CCC(=O)N34)CC2)c1C (stereo not given)	/	1%	/	-9%	-7%	-19%	-17%	/
CCc1ccc(-c2nn[nH]n2)cc1	-9%	-10%	-9%	-1%	-3%	16%	27%	2.8%
CNc1ccc2oc(C[C@H]3O[C@@]4(CC[C@H]3C)O[C@H]([C@H](C)C(=O)c3ccc[nH]3)[C@H](C)C[C@H]4C)nc2c1C(=O)O	?	-10%	-46%	?	0.23µM*	2.9µM*	?	-18%
COC(=O)C1CCN(c2csc3ccc(C)cc3c2=O)CC1	-3%	/	/	/	19%[46.1 µM]	/	27%	-2.4%
